A1 inh – inhibitors of the anti-apoptotic protein A1, read as caspase activation; 330,000 compounds, 0.066% hits; MEF A1-2A-BIM cells, Caspase-Glo 3/7 luminescence, 3 h; percent of clofoctol response, vehicle zero; caspase activation, % (test concentration not listed);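 active means over half of replicate activation scores above 10%, or exactly half above 10 with the replicate mean above 10; inconclusive means replicate mean below 10 yet half the replicates above 10; inactive means over half of replicates below 10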;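 further: wells of about 30 µL received 50 nL stock; many hits fall short of the cut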
T cruzi repl – blocks replication of Trypanosoma cruzi | T. cruzi beta-gal in NIH3T3, luminescence, 90 h | inhibition, % (test concentration not listed) | 300,000 compounds, 1.4% hits;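 active means mean inhibition across valid replicates above about 55%, limit read from the data; inconclusive means mean below that limit but half or more replicates reach it; inactive means mean below it, under half of replicates reach it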;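 further: signal also drops with host cell toxicity which is not excluded here; 0% = plate median of DMSO wells and 100% = zero luminescence signal; higher percent means less beta-gal luminescence so fewer parasites; stock transfer was 50 nL into about 50 µL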
LANA-H2A inh – blocks KSHV LANA binding to histone H2A/H2B; Q9QR71; cell-free LANA-H2A/H2B peptide, fluorescence polarization; inhibition, % (no concentration beside the values); 320,000 compounds, 0.6% hits; in the data active means inhibition mostly above about 10%, no sharp cut-off; inactive means mostly below about 6.7%;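 further: stock transfer was 7.5 nL into about 10 µL; 0% = median of vehicle wells and 100% = median of positive control wells; one replicate is shown; the record names a cut of 25% in any replicate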
Target sequence (Q9QR71 whole entry, looked up): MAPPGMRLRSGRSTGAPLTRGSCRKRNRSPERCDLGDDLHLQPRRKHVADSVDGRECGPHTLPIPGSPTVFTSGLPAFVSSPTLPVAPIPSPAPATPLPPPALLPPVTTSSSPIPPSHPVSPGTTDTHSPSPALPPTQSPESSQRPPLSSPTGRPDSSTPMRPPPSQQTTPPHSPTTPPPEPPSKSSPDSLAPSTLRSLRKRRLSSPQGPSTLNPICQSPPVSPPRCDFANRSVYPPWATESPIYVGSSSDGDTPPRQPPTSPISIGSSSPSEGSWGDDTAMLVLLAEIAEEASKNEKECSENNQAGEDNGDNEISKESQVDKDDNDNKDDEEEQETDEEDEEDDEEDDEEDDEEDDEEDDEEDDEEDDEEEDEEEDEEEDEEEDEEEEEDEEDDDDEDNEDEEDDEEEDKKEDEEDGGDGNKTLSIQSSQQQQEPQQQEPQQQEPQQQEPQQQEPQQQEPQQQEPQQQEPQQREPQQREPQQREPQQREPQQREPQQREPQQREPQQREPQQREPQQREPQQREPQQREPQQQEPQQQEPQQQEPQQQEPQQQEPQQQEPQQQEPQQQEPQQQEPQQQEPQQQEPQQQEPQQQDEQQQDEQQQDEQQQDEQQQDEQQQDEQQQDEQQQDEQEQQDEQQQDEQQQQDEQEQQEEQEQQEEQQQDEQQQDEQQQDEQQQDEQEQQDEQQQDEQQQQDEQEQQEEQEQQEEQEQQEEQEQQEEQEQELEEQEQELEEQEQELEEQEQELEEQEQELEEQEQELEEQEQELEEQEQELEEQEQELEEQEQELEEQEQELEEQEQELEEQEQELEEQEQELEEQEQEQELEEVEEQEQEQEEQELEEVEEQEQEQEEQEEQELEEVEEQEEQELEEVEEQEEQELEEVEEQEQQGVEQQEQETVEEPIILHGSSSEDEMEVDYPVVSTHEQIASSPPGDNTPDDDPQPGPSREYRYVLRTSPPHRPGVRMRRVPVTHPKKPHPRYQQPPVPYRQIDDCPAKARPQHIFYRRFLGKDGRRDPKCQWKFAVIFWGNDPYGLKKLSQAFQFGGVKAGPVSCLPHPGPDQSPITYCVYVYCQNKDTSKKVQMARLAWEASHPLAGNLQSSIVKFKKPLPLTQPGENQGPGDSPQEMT
Ecoli rRNA inh – inhibits bacterial ribosomal RNA function over humanized ribosomes; AID 720706; E. coli WT GFP vs humanized-ribosome RFP mutants, fluorescence, 24 h; hits give low values; DMSO median 0, no signal -100; 350,000 compounds, 1.6% hits; GFP signal change (wild-type ribosome), % (no concentration beside the values);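 active means significant combined selectivity score with lowered wild-type GFP, culture density cut under 30%, mutant RFP and density less affected; inactive means any of these conditions unmet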; further: one replicate is shown; some compounds called inactive have numbers as strong as hits
Calb FLC – affects C. albicans growth with fluconazole; 300,000 compounds, 0.57% hits; C. albicans CaCi-2 (fluconazole-resistant clinical isolate) + fluconazole, Alamar Blue growth, 48 h; AID 1979; growth inhibition, % (concentration not given with the values);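 active means most replicates above 75%; inconclusive means exactly half above 75%; inactive means most below 75%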;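 further: all wells also contain fluconazole at 8 µg/ml as a sub-toxic cotreatment; 0% = median of DMSO wells and 100% = median of geldanamycin control wells; wells of about 8 µL received 7.5 nL stock; the first replicate is given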
Beta cell apopt – beta cell apoptosis inhibition; INS-1E cytokine-induced death, ATP luminescence, 48 h; percent of positive-control rescue, neutral wells zero; protection from apoptosis, % (test concentration not listed); 300,000 compounds, 0.8% hits;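 active means all replicates at 75% or more, or half of them and the mean; inconclusive means half reach 75% but not the mean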;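 further: 0% = cytokine-treated negative control wells and 100% = positive control rescue; higher means more ATP so stronger rescue from cytokine killing; wells of about 40 µL received 100 nL stock; the first replicate is given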
ALR inh – blocks human ALR sulfhydryl oxidase activity. 290,000 compounds, 3.8% hits. inhibition, % (concentration not given with the values). AID 485317. P55789. purified ALR, DTT oxidation, H2O2 HRP-luminol luminescence;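 active means mean and each replicate at 75% or more; inconclusive means only one of the two met; inactive means neither met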;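 further: stock transfer was 7.5 nL into about 7.5 µL; 0% = neutral wells and 100% = wells with inactivated enzyme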
B2AR ag – activates human beta-2 adrenergic receptor causing internalization; P07550; 340,000 compounds, 0.43% hits; response, % (no concentration beside the values); Am2.2-beta2AR cells, FAP receptor internalization, flow cytometry; reference of the scale not given here;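 active means response above a set limit, near 3 SD of response in nonfluorescent compounds, cut at about 42% in these data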;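 further: stock transfer was 100 nL into about 11 µL; a reference agonist was the positive control; negative values mostly stem from fluorescent compounds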
Ecoli rRNA inh OD600 – second read-out of Ecoli rRNA inh, no call of its own (marks repeat the call); OD600 change, %; measured here: OD600 growth;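 optical density of the mix in the first replicate; 0 = DMSO median and -100 = no signal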
Ecoli rRNA inh RFP – also measured in Ecoli rRNA inh; calls as there; RFP signal change, %; measured here: RFP humanized mutant strains;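 first replicate; 0 = DMSO median and -100 = no signal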
Active calls of the source: *; ? = inconclusive; nt = not tested or not shown. Not all compounds are listed. The share of hits here may be higher or lower than overall.

Fields – A1 inh	T cruzi repl	LANA-H2A inh	Ecoli rRNA inh	Ecoli rRNA inh OD600	Ecoli rRNA inh RFP	Calb FLC	Beta cell apopt	ALR inh	B2AR ag
1: COc1ccc(S(=O)(=O)N2CCCCCC2)cc1NS(=O)(=O)c1cc(C(=O)O)cc(C)c1C
    0.6	nt	-3.1	-4	-8	-0.2	nt	0	0	-3
2: CSc1ccc(/C=N/NC(=O)c2ccccc2Cl)cc1
    -1.9	2	2.2	11	6	0.2	-21	3	?	-1
3: COC(=O)Cc1csc(NC(=O)c2ccc3ncsc3c2)n1
    -1.3	nt	3.3	-6	0	1.0	nt	3	25	16
4: Cc1nc(-c2cccc(-c3noc(C)n3)c2)no1
    -0.5	3	1.9	nt	nt	nt	15	-4	1	-2
5: CC(=O)NN1C(=O)/C(=C\c2ccc(Br)o2)SC1=S
    0.0	0	0.2	nt	nt	nt	-3	nt	-11	-110
6: CC(=O)Nc1ccc(S(=O)(=O)N2CCC3(CC2)CC(=O)c2ccccc2O3)cc1
    0.3	2	0.8	-13	-16	-0.1	0	nt	-2	31
7: COc1cc([N+](=O)[O-])cc([N+](=O)[O-])c1NC(=O)N1CCOCC1
    0.2	-6	3.0	-8	8	-3.2	12	-8	nt	12
8: COc1cc(C(=O)Nc2ccc(NC(=O)C3CC3)nc2)cc(OC)c1OC
    -0.2	4	2.8	nt	nt	nt	0	2	-6	-26
9: C/C=C(\C)C(=O)OC(C)(C)[C@H]1Cc2cc3ccc(=O)oc3cc2O1
    -0.7	-2	1.1	-34	-49	-14	5	-1	-54	0
10: Clc1ccc(C2=Nn3c(Cn4nnc5ccccc54)nnc3SC2)cc1
    0.2	3	-2.9	18	16	1.5	-2	-6	-25	-9
11: COCCNc1c2c(c(C#N)c3nc4ccccc4n13)CCCC2
    -0.3	-3	2.3	0	2	-1.1	-8	-8	7	-12
12: CCSc1cc(N2CCCC2)nc(-c2ccc(F)cc2)n1
    -0.7	36	0.1	nt	nt	nt	5	7	-2	0
13: COc1ccc(Cl)cc1NC(=O)CN(C)C(=O)Cc1ccsc1
    0.4	-16	1.2	-6	-5	-4.8	-2	0	-1	1
14: CC(=O)c1cc2c(cc1NS(=O)(=O)c1ccccc1Br)OCO2
    -0.5	12	-8.1	8	2	1.9	0	-5	3	-1
15: Cc1n[nH]c(=O)c2c(NC(=O)CSc3nnc(-c4ccncc4)n3C)oc(C)c12
    0.1	3	-2.7	12	16	3.0	4	-5	1	1
16: CC1(C)CC(=O)C2=C(C1)Nc1ncnn1C2c1ccccn1 (configuration not stated)
    1.1	-8	-1.0	nt	nt	nt	0	-4	-1	-6
17: CCCCn1c(N)c(-c2nc3ccccc3o2)c2c([N+](=O)[O-])nn(C)c(=O)c21
    0.5	8	-1.9	13	3	-1.3	-32	-4	-9	-3
18: COc1ccc(/C=N/Nc2ncnc3scc(-c4ccccc4)c23)cc1OC
    -1.4	14	-1.0	nt	nt	nt	-6	19	-11	7
19: Cc1cc(NC(=O)c2cc(-c3ccco3)on2)n(-c2ccccc2)n1
    -0.7	-17	0.9	nt	nt	nt	-5	-2	-4	5
20: O=C(CN1CCOCC1)Nc1ccc(F)cc1
    0.2	0	1.7	2	9	-3.9	2	-4	3	1
21: Cc1ccc(C)c(N(Cc2cc3ccc(C)cc3[nH]c2=O)C(=O)c2ccco2)c1
    0.5	14	0.6	-2	1	-1.2	7	-2	-2	-6
22: COC(=O)[C@@H]1C[C@]2(OC(=O)c3ccccc3)C=CC(=O)C[C@@H]2N1C(=O)OCc1ccccc1
    0.8	36	-5.4	-4	-4	-13	-4	1	23	10
23: COc1ccccc1-c1nnc2sc(COc3ccc(Cl)cc3Cl)nn12
    0.8	17	-2.2	nt	nt	nt	?	-8	-12	-16
24: CCOC(=O)c1cnn(-c2ccccc2)c1NC(=O)c1ccccc1C
    -0.3	-5	8.9	nt	nt	nt	-4	0	-1	6
25: Cc1cc(C)c2c(N)c(C(=O)Nc3nccs3)sc2n1
    -2.9	-6	-0.4	nt	nt	nt	18	3	33	-18
26: COCCN(C(=O)Nc1ccc(OC)cc1OC)C1CCN(C(C)C)CC1
    0.2	-2	3.8	5	0	1.8	-17	-7	-11	-3
27: CCOC(=O)N1CCN(Cc2nc3c(c(=O)n(C)c(=O)n3C)n2CCCc2ccccc2)CC1
    0.3	16	-0.5	nt	nt	nt	1	0	-37	-7
28: CC(C)C(=O)NC(c1cccc([N+](=O)[O-])c1)c1c(O)ccc2ccccc12 (configuration not stated)
    0.7	1	-4.6	12	10	-1.5	28	-4	-8	-3
29: O=C(N/C(=C\c1cccc([N+](=O)[O-])c1)C(=O)N1CCOCC1)c1ccc([N+](=O)[O-])cc1
    0.3	-2	-8.7	-6	2	-2.1	-8	-1	-12	-2
30: O=C1CCN(Cc2ccccc2)CCN1[C@H](COc1ccccc1)Cc1ccccc1
    1.7	25	-1.6	-34	-40	-12	-8	-5	-1	6
31: CCNc1ccc(C(=O)OCC(=O)NCCN2C(=O)CSC2=O)cc1[N+](=O)[O-]
    1.4	-6	-0.8	11	1	1.5	-1	3	2	-2
32: CCc1cccc(CC)c1NC(=O)CSc1nc2ccc(N3C(=O)C4C5C=CC(C5)C4C3=O)cc2s1 (configuration not stated)
    -0.3	50	-0.2	nt	nt	nt	-21	12	-1	5
33: O=C(NCC1CCS(=O)(=O)C1)NCC1CCS(=O)(=O)C1 (configuration not stated)
    1.7	-6	-4.4	nt	nt	nt	10	1	-1	-3
34: O=C(CSc1nnc(-c2ccncc2)o1)Nc1cc(F)ccc1F
    -2.8	nt	6.0	12	10	0.6	nt	5	-11	-6
35: O=C(Cn1ccc([N+](=O)[O-])n1)N1CCc2ccccc21
    0.1	14	-2.1	13	7	1.6	-1	-1	-3	-4
36: CN1CCN(CCNC(=O)Nc2ccccc2[N+](=O)[O-])CC1
    0.8	49	4.4	14	17	0.7	-9	-4	-28	7
37: COc1ccc(S(=O)(=O)N2CCC(C(=O)NCCC(=O)Nc3cccc(Cl)c3)CC2)cc1
    -0.3	10	2.0	-4	5	4.9	-10	4	-4	-3
38: CC(C)c1nc(C#N)c(N2CCOCC2)o1
    0.6	1	0.8	12	4	-7.5	-4	-8	-13	2
39: c1ccc2oc(SCc3cn4ccccc4n3)nc2c1
    -0.9	7	-4.9	-23	-25	-1.2	-8	nt	28	-21
40: Cc1noc(C)c1-c1ccc2nc[nH]c(=O)c2c1
    -0.4	7	0.9	-7	-1	-7.2	5	-8	-8	-1
41: COc1ccc(Br)c(-c2nc(CS(=O)(=O)c3ccc(F)cc3)no2)c1
    0.9	10	-0.9	-27*	2.5*	-1.7*	1	-3	-7	-3
42: COc1cc(NC(C)=O)c2ncccc2c1NC(C)=O
    0.1	-2	-5.0	13	5	1.9	13	4	-33	3
43: CCOC(=O)c1nn(-c2ccc(C)c(C)c2)c(=O)c2c(N)scc12
    0.2	-24	0.5	nt	nt	nt	13	2	nt	0
44: C#CCCOC(=O)N1C2=NC(C(=O)OC)=C(C(=O)OC)[C@@H]3Nc4ccccc4[C@]23C[C@H]1C(=O)OC
    1.4	-17	3.2	nt	nt	nt	-1	-3	-8	5
45: CCc1ccc2c(c1)Sc1ccccc1CC2N1CCN(C)CC1 (configuration not stated)
    1.1	40	-1.2	-51	-82	-14	38	4	-9	21
46: Cc1nnc(SC(C)C(=O)NC2CCCc3ccccc32)n1-c1ccccc1 (configuration not stated)
    -1.2	2	-0.5	-12	0	0.0	-11	-5	-2	14
47: Cc1cccc2nc3ccccc3cc12
    -1.4	28	-2.7	-2	-9	-1.6	5	-11	-12	-5
48: Cc1csc(NC(=O)c2ccc(S(=O)(=O)N3CCCC3)cc2)n1
    1.1	4	1.4	-11	-7	-3.4	-2	-3	-2	6
49: Cc1ccc(Cn2ccc(NC(=O)c3noc4c3CCc3ccccc3-4)n2)cc1
    -0.4	-1	-2.1	nt	nt	nt	-1	1	-13	4
50: COC(=O)Cc1cc(C)cc2c(=O)cc(-c3ccoc3)oc12
    0.3	5	-3.9	nt	nt	nt	13	-1	21	-1
51: Nc1ccc(S(=O)(=O)N2CCOCCOCCOCCOCCOCC2)cc1
    0.8	-7	-2.9	-3	-1	-3.6	-8	3	-3	-8
52: CN(CCc1ccccn1)C(=O)c1ccc(OC2CCN(Cc3ccccn3)CC2)cc1
    -0.9	6	-7.6	8	7	0.6	24	0	-3	-5
53: N#Cc1nc(Cc2ccccc2)oc1NCc1ccccc1
    -0.6	-1	-3.6	nt	nt	nt	2	0	nt	-3
54: CCOC(=O)c1cnc(SCc2nc(N)nc(Nc3ccc(F)cc3)n2)nc1N
    0.9	-20	-0.3	nt	nt	nt	?	5	-3	-15
55: O=C(CCN1C(=O)c2ccccc2C1=O)NCCC1=CCCCC1
    0.0	-21	2.7	nt	nt	nt	-15	0	-13	2
56: O=C(Nc1ccc(OC(F)(F)F)cc1)Oc1ccccc1N1CCCCC1
    2.1	2	2.5	-50*	-28*	-12*	-2	-3	0	0
57: O=C(Nc1cccnc1)c1ccc(COc2ccccc2Br)cc1
    1.1	-2	-2.1	-22	-20	-1.9	-17	2	-7	2
58: COc1cc2c(cc1OC)CN(C(=O)c1cc(Cl)nc(Cl)c1)CC2
    0.0	-1	1.8	3	2	2.6	-3	-1	-7	16
59: COc1ccc(N2C(=O)c3ccc(C(=O)Nc4ccccc4OC)cc3C2=O)cc1
    0.7	2	-1.6	6	11	-0.9	-6	3	-13	6
60: CCOc1ccc(S(=O)(=O)NCCC(=O)N2CCCN(C)CC2)cc1
    0.5	-6	-2.6	10	8	0.1	-1	-2	1	-2
